Compound activity as filed in PubChem.
HIV TAR-Tat – HIV-1 TAR-Tat binding disruption; HIV-1 TAR RNA, Tat peptide displacement FRET; hits give high values; z-score (concentration not given with the values); 100,000 compounds, 0.6% hits; AID 1259389;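 further: score is relative to mean and SD of negative controls; some compounds called inactive have numbers as strong as hits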
CDC25B CDK2 inh – human CDC25B-CDK2/CyclinA binding inhibition; 94,000 compounds, 0.72% hits; HTRF CDC25B-CDK2/CyclinA binding, anti-His/anti-Flag; hits give high values; z-score (concentration not given with the values); P30305+P24941; AID 1259370;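 further: score is relative to mean and SD of negative controls; strong numbers were not always called active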
Numbers without * were called inactive; . = no result given.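 How the source made its calls: active means z-score from 3 up in half or more of its runs; inactive means the rest.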

Below each compound – HIV TAR-Tat, CDC25B CDK2 inh
1. O=C(Nc1ccc2c(c1)OCCO2)C1CC2CCCN2C12C(=O)Nc1ccccc12 (stereo not drawn)
  0.88, .
2. CSc1ncc(Cl)c(C(=O)Nc2nc3ccc(S(C)(=O)=O)cc3s2)n1
  2.3, -1.9
3. CN(C)c1ccc(CNc2c(-c3ccccc3)c(=O)c2=O)cc1
  1.5, .
4. O=C1CC(c2ccccc2)Cc2[nH]c(=O)c(-c3nc(-c4ccc(Cl)cc4)cs3)cc21 (stereo not drawn)
  -2.3, -1.8
5. CC1CCCCN1S(=O)(=O)c1csc(C(N)=O)c1 (stereo not drawn)
  2.2, .
6. O=C(Nc1cccc(-c2cn3cccnc3n2)c1)c1ccco1
  ., -0.96
7. Nc1ncn(C(=O)c2ccccc2)n1
  0.43, -3
8. CCCSc1ncc(Cl)c(C(=O)Nc2sc3c(c2C(=O)NCC2CCCO2)CCC3)n1 (stereo not drawn)
  -4.6, 0.28
9. O=C(NN1CCOCC1)c1ccc(Oc2ccc(Cl)cc2)c([N+](=O)[O-])c1
  ., -0.76
10. O=C(NCCN1CCOCC1)c1sc2cc(Cl)ccc2c1Cl
  -0.75, 0.63
11. Cc1ccccc1Cn1cc(S(=O)(=O)c2ccc(Cl)cc2)c(=O)c2cc3c(cc21)OCO3
  0.37, -0.78
12. CSc1cccc(NC(=O)N2CCSc3ncccc32)c1
  -0.94, .
13. O=C(Cn1c(=O)oc2cc(S(=O)(=O)N3CCCCCC3)ccc21)N1CCc2ccccc2C1
  ., -0.81
14. Cc1cc(-c2ccc(C)c(S(=O)(=O)NC(c3cccs3)C(C)C)c2)on1 (stereo not drawn)
  1.8, .
15. CC1(C)C(=O)N(CC(=O)NC2CCCCC2)c2ccccc21
  0.53, .
16. CC(NS(=O)(=O)c1ccccc1)C(c1cccs1)N1CCN(c2ccc(F)cc2)CC1 (stereo not drawn)
  ., -0.76
17. COc1ccc2cc3c(N)nn(C(=O)Cn4c(=O)oc5ccccc54)c3nc2c1
  ., -0.84
18. CC(=O)N1CCN([C@H]2CS(=O)(=O)C[C@@H]2S(=O)(=O)c2ccc(C)cc2)CC1
  -0.39, -1
19. Cc1ccccc1Cn1c(C2CCCO2)nc2ccccc21 (stereo not drawn)
  1, -0.73
20. O=C(CCc1nnc2ccc(N3CCOCC3)nn12)NC1CCCCC1
  1.4, .
21. COC(=O)c1cc2c(cc1NC(=O)c1sc3nc4n(c(=O)c3c1C)CCCC4)OCO2
  3.5, .
22. O=C1CSc2ccc(S(=O)(=O)NC3CCCCC3)cc2N1
  2.7, .
23. CC1CCCCN1C(=O)CSc1nc(-c2ccc(F)cc2)nc2cc(=O)[nH]n12 (stereo not drawn)
  0.09, .
24. Cc1ccccc1-c1nc2scc(CCNS(=O)(=O)c3ccccc3)n2n1
  0.89, .
25. CCOc1ccc(Oc2nc(N3CCOCC3)nc(N3CCOCC3)n2)nn1
  ., 0.12
26. CCOC(=O)N1CCN(C(=O)c2cc3c(=O)n(C)c4ccccc4c3s2)CC1
  0.01, -0.71
27. C=CCN(C(=O)c1cc2c(s1)-c1ccccc1S(=O)(=O)C2)c1ccccc1
  0.48, -18
28. Cc1cc2c(cc1S(=O)(=O)N1CCc3ccccc3C1)OCC(=O)N2Cc1noc(C2CC2)n1
  -0.6, .
29. CC12CC(NC(=O)N1c1ccccc1F)c1ccccc1O2 (stereo not drawn)
  ., -1.8
30. Cc1cccc(OCC(=O)Nc2ccc3c(c2)C(=O)c2ccccc2C3=O)c1
  ., -1.1

Complete entries, looked up by structure. Order of values: HIV TAR-Tat	CDC25B CDK2 inh
`Cc1cc(-c2ccc(C)c(S(=O)(=O)NC(c3cccs3)C(C)C)c2)on1` (stereo not drawn) is listed with 1.8	.
`CCOC(=O)N1CCN(C(=O)c2cc3c(=O)n(C)c4ccccc4c3s2)CC1` is listed with 0.01	-0.71
`O=C(NCCN1CCOCC1)c1sc2cc(Cl)ccc2c1Cl` is listed with -0.75	0.63

Additional entries.
Below each compound – HIV TAR-Tat, CDC25B CDK2 inh
31. CC(=O)O[C@@](C)(CCC=C(C)C)C1CC=C(C)CC1 (stereo partly drawn)
  2.5, .
32. Cc1c(CCNS(=O)(=O)c2ccc3c(c2)OCCO3)sc2nc(-c3ccc(Cl)cc3)nn12
  0.97, .
33. COc1ccc2cc3cc(C(=O)O)sc3nc2c1
  0.87, 0.24
34. N/C(=N\OC(=O)CCn1cccc(C(F)(F)F)c1=O)c1ccc(OC(F)(F)F)cc1
  ., -1.5
35. Cc1sc2ncn(CC(=O)NCCCC(=O)N3CCC(C(N)=O)CC3)c(=O)c2c1C
  0.65, -1.2
36. Cc1cc(Nc2ccc(O)cc2)nc2cccc(O)c12
  1.1, -0.35
37. COc1cccc2c1Oc1[nH]c(-c3cccc(OC)c3OC)nc(=S)c1C2
  1.3, -0.9
38. O=S1(=O)c2ccccc2NC(c2ccc(F)cc2)N1Cc1ccccc1 (stereo not drawn)
  ., -0.1
39. Cc1ccc(-n2ccn3c(=O)[nH]nc3c2=O)cc1F
  2, -0.94
40. COC(=O)Cc1c(C(=O)OC)nnn1-c1ccc(Cl)cc1
  ., -1.8
41. CC1CN(C(=O)CCC(=O)NC2CCCC2)c2ccccc2O1 (stereo not drawn)
  -0.26, -1.3
42. CSc1cccc(NC(=O)CSc2nc(-c3ccccc3F)nc3cc(=O)[nH]n23)c1
  0.27, .
43. O=C(CCC(=O)N1CCOc2ccccc21)NCCCN1CCOCC1
  -0.77, -2.1
44. COc1ccc(CCN2C(=O)c3[nH]nc(-c4ccccc4O)c3C2c2cccc(O)c2)cc1OC (stereo not drawn)
  0.67, 0.64
45. O=C(CC1(O)C(=O)N(CCc2ccccc2)c2ccccc21)c1ccccc1 (stereo not drawn)
  ., -1
46. CCCC(NS(=O)(=O)c1ccc2c(c1)NC(=O)CCS2)c1cccs1 (stereo not drawn)
  0, .
47. CC1CC(C)CN(CCCNS(=O)(=O)c2cccc3cccnc23)C1 (stereo not drawn)
  ., 1.7
48. Cn1cc(-c2cc3n(n2)CCC(=O)N3CC(=O)NC2CCCCC2)c2ccccc21
  0.91, .
49. O=C1c2ccccc2-c2onc3c(N4CCOCC4)cc(N4CCN(C(=O)c5ccco5)CC4)c1c23
  0.89, -1.7
50. O=C(Nc1ccccc1F)c1cnc2sc(N3CCOCC3)nn2c1=O
  0.23, .
51. O=C(Nc1ccc(C(=O)NCCC2=CCCCC2)cc1)C1=CSCCO1
  1.4, .
52. Nc1nc(Nc2ccccc2)nc(NCC2CCCO2)c1[N+](=O)[O-] (stereo not drawn)
  1.1, .
53. COc1ccc(OC)c(-c2noc(NCc3ccccc3OC)n2)c1
  1.7, .
54. CNC(=S)NNC(=O)CSCc1c(Cl)cccc1Cl
  ., -2.9
55. Cc1nc2n(CC(=O)c3ccccc3)c3ccccc3n2n1
  1.2, -1.5
56. Clc1ccc(-c2noc3ncnc(N4CCC(c5ccccc5)C4)c23)cc1 (stereo not drawn)
  -0.82, 0.28
57. O=C1CCCC2=C1C(c1ccc(F)cc1)C1C(=O)c3ccccc3C1=N2 (stereo not drawn)
  3.6, -1.3
58. O=C1CC(NC2CCN(c3ccc(Cl)nn3)CC2)C(=O)N1c1ccc(F)cc1 (stereo not drawn)
  -0.1, -1.6
59. CC1CCCN(c2cc(NCCCC(=O)O)c3c4c(onc24)-c2ccccc2C3=O)C1 (stereo not drawn)
  -2.2, 0.56
60. Clc1ccc(-c2noc3ncnc(N4CCc5ccccc5C4)c23)cc1
  0.92, .

Below each compound – HIV TAR-Tat, CDC25B CDK2 inh
61. c1ccc2c(c1)N1CC3(CCCCC3)CNC1C21OCCO1 (stereo not drawn)
  ., -2.5
62. CCC1CCCCN1C(=O)Cn1c(=O)n(CCC(=O)NCc2ccco2)c(=O)c2sccc21 (stereo not drawn)
  ., 0.47
63. COCCCNC(=O)C1CCN(C(=O)c2cc3sccc3n2C)CC1
  1.6, -1.2
64. O=S(=O)(NCCc1csc(-c2cccc(F)c2)n1)c1ccccc1
  -0.03, .
65. Cc1n[nH]c(C)c1S(=O)(=O)N1CCN(c2ccccc2)CC1
  ., -0.73
66. O=C(CSc1n[nH]c(-c2ccncc2)n1)c1c[nH]c2ccccc12
  -0.52, 6.8*
67. Nc1ccc(Nc2ccc(N)cc2S(=O)(=O)O)cc1
  ., 0.5
68. COc1ccc(-c2nnc3c4ccccc4c(C)nn23)cc1S(=O)(=O)N1CCOCC1
  ., -1.7
69. O=S(=O)(c1ccc(F)cc1)N1CCC(Oc2ccc(-n3cnnn3)cc2)CC1
  0.67, -1.4
70. O=C1c2ccccc2-c2onc3c(N4CCN(C5CCCCC5)CC4)cc(NCc4ccco4)c1c23
  -5.6, 1.4
71. O=C(Nc1nc2c(s1)CN(S(=O)(=O)c1ccccc1)CC2)c1cnccn1
  0.45, .
72. O=C(CSc1nc(-c2cccs2)nc2cc(=O)[nH]n12)Nc1ccccc1
  0.68, .
73. CC(C)=N/N=C1/N=C(c2ccc(Cl)cc2)CS1
  ., -1.8
74. COCCNc1ncnc2onc(-c3ccc(F)cc3)c12
  -1.2, .
75. COc1ccc(-n2nnc3c(C)nc(-n4nc(C)cc4C)nc32)cc1
  0.21, 0.68
76. Cc1c(C)c(C)c(S(=O)(=O)Nc2cccnc2)c(C)c1C
  ., -1.4
77. CS(=O)(=O)Nc1ccc(Oc2c(C#N)cccc2C#N)cc1
  ., -0.13
78. CC1=C(c2ccc(C)c(C)c2)S(=O)(=O)N(Cc2ccc(C(=O)NCc3cccs3)cc2)C1=O
  -0.91, -0.83
79. CC(=O)O[C@H]1CC[C@@]2(C)C(C[C@@H](OC(C)=O)[C@@]3(C)C4=CC(=O)O[C@@H](c5ccoc5)[C@]4(C)CCC23)C1(C)C (stereo partly drawn)
  3, .
80. CC(C)CCN1C(=O)CSc2c(c3ccccc3n2C)C1C(=O)NCCCOC(C)C (stereo not drawn)
  1.9, .
81. CCCCN(CC)S(=O)(=O)c1ccc2c(c1)NC(=O)CC(C)S2 (stereo not drawn)
  -0.08, .
82. O=C1CC(c2ccsc2)c2cc3c(cc2N1)OCCO3 (stereo not drawn)
  0.47, 0.53
83. Cc1cc(C)c(N2CC(=O)NCC2=O)c(C)c1
  -1.2, 0.51
84. CCN(CC)C(=O)CSc1nn(CC)c2nc3c(c(=O)n12)C(C)(CC)Cc1ccccc1-3 (stereo not drawn)
  0.02, -1.5
85. CCOC(=O)N/N=C/c1ccc(O)cc1
  ., -1.4
86. CSc1c(-c2ccccn2)c(N)nn1C(=O)C1CCC1
  ., -1.5
87. NNC(=O)c1ccccc1NC(=O)c1ccccc1Cl
  ., -1.2
88. Cn1c(=O)c2c(ncn2CC(=O)N2CCCC2)n(C)c1=O
  0.62, -2.1
89. COc1ccc(Cn2c(SCc3cc(=O)n4ccccc4n3)nc3ccsc3c2=O)cc1
  ., -0.71
90. COCCOC(=O)C1=C(C)NC2=C(C(=O)C(C(=O)OC)C(C)C2)C1c1cccc(O)c1 (stereo not drawn)
  0.82, -0.4

4 entries drawn at random from the list so far:
Below each compound – HIV TAR-Tat, CDC25B CDK2 inh
71. O=C(Nc1nc2c(s1)CN(S(=O)(=O)c1ccccc1)CC2)c1cnccn1
  0.45, .
62. CCC1CCCCN1C(=O)Cn1c(=O)n(CCC(=O)NCc2ccco2)c(=O)c2sccc21 (stereo not drawn)
  ., 0.47
86. CSc1c(-c2ccccn2)c(N)nn1C(=O)C1CCC1
  ., -1.5
77. CS(=O)(=O)Nc1ccc(Oc2c(C#N)cccc2C#N)cc1
  ., -0.13

More results:
Below each compound – HIV TAR-Tat, CDC25B CDK2 inh
91. COc1ccc(-c2c3c(=O)n(C)c(=O)n(C)c3c3n2C(C)(C)COC3c2c[nH]c3ccccc23)cc1 (stereo not drawn)
  -0.58, -2.4
92. CSc1nc(C)c(Cc2ccccc2)c(=O)[nH]1
  1.7, -0.93
93. Cc1ccc(CO)cc1Nc1ncnc2onc(-c3ccc(F)cc3)c12
  0.42, -1.8
94. CC1CCc2noc(NC(=O)COc3ccc(F)cc3)c2C1 (stereo not drawn)
  -0.61, -1.2
95. Cn1c2ccccc2c2cnn(CC(=O)NCCCN3CCCC3=O)c(=O)c21
  0.12, 0.4
96. CCCOc1ccc(C2c3c(oc4ccccc4c3=O)C(=O)N2c2ccc(C)cn2)cc1 (stereo not drawn)
  0.78, 1.2
97. Cc1ccc(C(=O)CNC2=NCCC2)cc1
  1.7, -0.16
98. O=C(Cn1c(=O)c2cccn2c2ccc(F)cc21)NC1CC1
  1.9, .
99. COC(=O)c1sccc1NC(=S)Nc1ccc(C)cc1
  ., -2.5
100. Oc1ccc(Cl)cc1C1=NN2C(C1)c1ccccc1OC2c1cccnc1 (stereo not drawn)
  3, -0.93
101. CC1(C)CC(=O)C2=C(C1)c1c(ccc3ccccc13)NC2c1ccc(C#N)cc1 (stereo not drawn)
  ., -6
102. CCOC(=O)C1CCN(c2c(NCCCN3CCCCC3)c(=O)c2=O)CC1
  0.84, -0.68
103. Cc1cc2ccccc2n1-c1ccc(C(=O)N2CCC(C(=O)N3CCC(C)CC3)CC2)s1
  0.95, .
104. COc1ccc2nc(COc3ccccc3)[nH]c2c1
  0.44, -0.09
105. O=C(O)c1ccc(S(=O)(=O)c2ccc3c(c2)C(=O)N(Cc2ccco2)C3=O)cc1
  ., -0.94
106. Cc1ccc(C(C2=C(O)CC(C)(C)CC2=O)C2C(=O)CC(C)(C)CC2=O)o1 (stereo not drawn)
  1.7, -1.3

Exported screen by screen: part of the list above
42	CSc1cccc(NC(=O)CSc2nc(-c3ccccc3F)nc3cc(=O)[nH]n23)c1
48	Cn1cc(-c2cc3n(n2)CCC(=O)N3CC(=O)NC2CCCCC2)c2ccccc21

| Assay by compound | 42 | 48 |
| --- | --- | --- |
| HIV TAR-Tat | 0.27 | 0.91 |
| CDC25B CDK2 inh | . | . |
